HPGD block – inhibitors of human 15-hydroxyprostaglandin dehydrogenase (HPGD) | Potency, µM, inactives show top-dose activity change, negative = inhibition, usual class: inhibitors | AID 894 | 4.3% of 150,000 active | purified HPGD, NADH fluorescence kinetic, PGE2 substrate | P15428; active = well fitted inhibition curve with a large enough effect (not every such curve was filed as active); inconclusive = small, poorly fitted or top-dose-only effect, or another doubt; inactive = no such curve, though single readings can be large or run the other way;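 note: top concentration of the series not given in the record; plate controls included wells without enzyme; inactives centre near -10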
Target sequence (P15428 whole entry, looked up): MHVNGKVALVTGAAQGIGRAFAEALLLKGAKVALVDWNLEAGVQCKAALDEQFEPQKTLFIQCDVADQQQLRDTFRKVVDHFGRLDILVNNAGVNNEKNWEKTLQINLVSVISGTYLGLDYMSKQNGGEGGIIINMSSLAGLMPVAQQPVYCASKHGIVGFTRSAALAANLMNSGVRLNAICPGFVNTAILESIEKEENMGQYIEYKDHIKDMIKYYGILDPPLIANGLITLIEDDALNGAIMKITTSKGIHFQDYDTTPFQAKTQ
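20 nM HPGD preincubated 15 min at room temperature with compound in 50 mM Tris-HCl pH 8, 0.01% Tween 20. Started with 1 mM NAD+ and 30 uM prostaglandin E2; NADH fluorescence (360/450 nm) read 5 times over 30-s intervals, last minus first.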
* = called active by the depositor; ? = inconclusive; & = joins results of further samples. % is set by controls: 0 for no effect and ±100 for the full control effect; potency is the fitted concentration of half-maximal effect. An excerpt (hit frequency here may not be typical).

SMILES | HPGD block
Cc1cc(C)nc(SCC(=O)Nc2cc(C)on2)n1 | -9.5%
O=C(CCCCC(=O)N1CCN(c2ccccc2)CC1)N1CCN(c2ccccc2)CC1 | -2.3%
CN(C)S(=O)(=O)c1ccc(Cl)c(NC(=O)COC(=O)C2CSC3(C)CCC(=O)N23)c1 (centres undefined) | 2.0%
COc1ccccc1CSc1nc2ccccc2[nH]1 | -28.4%
CCN(CC)C(=O)C1CCCN(C(=O)Nc2ccccc2)C1 (centres undefined) | ?
COc1ccc(C)cc1NC(=O)c1ccc(N(C)S(C)(=O)=O)cc1 | 2.2%
CCc1ccccc1N1C(=O)C2CC(C)=C(C)CC2C1=O (centres undefined) | -1.0%
Cc1ccc(S(=O)(=O)CCSc2cccc(C(=O)Nc3ccccc3C(=O)O)c2)cc1 | 15.8µM*
CC(=O)c1ccc(NC2=C(N3CCOCC3)C(=O)c3ccccc3C2=O)cc1 | -1.1%
COc1ccc(NC(=O)C2CCN(S(=O)(=O)c3ccc(OC)c(OC)c3)CC2)c(OC)c1 | -6.3%
COc1ccc2nc(N3CCCC3)[nH]c2c1 | -4.3%
Cc1ccc(S(=O)(=O)NCC(=O)N(CC(=O)NC(C)(C)C)Cc2cccs2)cc1 | -11.1%
Cc1ccc(C)c(Nc2ncccc2C(=O)NCc2cccs2)c1 | 25.1µM*
CCn1c(NC(=O)c2cccs2)c(-c2cccs2)c(=O)c2ccccc21 | -2.5%
CCOC(=O)N1CCC(N(CCOC)C(=O)Nc2ccc(Cl)c(Cl)c2)CC1 | -5.1%
Cc1cc2nnc(SC(C)C#N)n2c2ccccc12 (centres undefined) | -26.3%
CC1CN(Cc2nc3c(c(=O)[nH]c(=O)n3C)n2CCCc2ccccc2)CC(C)O1 (centres undefined) | -3.8%
O=C(NC1CCCCC1)N1CCN(C(=O)c2ccco2)CC1 | -1.9%
COc1ccc(N2CCN(c3nc(=S)n(-c4ccccc4)c(C)c3C(C)=O)CC2)cc1 | -13.2%
CCOC(=O)c1cccc(NC(=O)CSc2nnc(COc3ccccc3)n2CC)c1 | -1.1%
CC(C)(C)c1ccc(C(O)CCCN2CCC(C(O)(c3ccccc3)c3ccccc3)CC2)cc1 (centres undefined) | -0.8%&-21.2%
C=CCN1C(=O)C(CC(=O)Nc2ccc(OC)cc2)N(Cc2ccco2)C1=S (centres undefined) | -6.6%
Cc1cccc(N2C(=O)C(Oc3ccc(Cl)cc3Cl)C2C=O)c1C (centres undefined) | 2.0%
Cc1cccc2cc(CN(Cc3cccs3)S(=O)(=O)c3ccc4c(c3)OCCO4)c(=O)[nH]c12 | -15.4%
O=C(/C=C/c1ccc2c(c1)OCO2)c1ccco1 | ?

Reprinted from the part before: 4 compounds; new compounds follow.
SMILES | HPGD block
C=CCN1C(=O)C(CC(=O)Nc2ccc(OC)cc2)N(Cc2ccco2)C1=S (centres undefined) | -6.6%
Cc1cccc(N2C(=O)C(Oc3ccc(Cl)cc3Cl)C2C=O)c1C (centres undefined) | 2.0%
Cc1cccc2cc(CN(Cc3cccs3)S(=O)(=O)c3ccc4c(c3)OCCO4)c(=O)[nH]c12 | -15.4%
O=C(/C=C/c1ccc2c(c1)OCO2)c1ccco1 | ?
CC(NC(c1ccccc1)c1ccccc1)C(=O)N1CCCc2ccccc21 (centres undefined) | -7.0%
O=C1c2ccccc2C(O)N1Cc1ccccc1Cl (centres undefined) | 12.6µM*
N#Cc1ccc(CN2CC[C@@]3(CCCN(C(=O)c4ccco4)C3)C2)cc1 | -3.4%
CS(=O)(=O)N1CCCC(c2nc(-c3ccc(S(=O)(=O)NCc4ccccc4)cc3)no2)C1 (centres undefined) | -11.1%
O=C(/C=C/c1ccc([N+](=O)[O-])cc1)NCc1cccs1 | -13.1%
Cc1ccc(Cn2c(Sc3ncccn3)nc3c2c(=O)[nH]c(=O)n3C)cc1 | -5.4%
CC(C)Cc1nnc(NC(=O)CC(=O)Nc2ccccc2C(=O)O)s1 | -14.6%
O=C(NC(Cc1ccccc1)C(=O)O)/C(=C\c1ccco1)NC(=O)c1ccccc1Br (centres undefined) | -7.2%
CCOC(=O)c1cc(-c2ccccc2)sc1NC(=O)CSc1nnnn1C | -23.0%
Cc1cc(-c2csc(N)n2)c(C)n1C | -0.5%
Cc1ccc(CN2CCN(CC(=O)NC(C)CCc3ccccc3)C2=O)cc1 (centres undefined) | -12.7%
O=C(CSCc1n[nH]c(=O)[nH]1)NCCOc1cccc(Oc2ccccc2)c1 | 4.6%
CN1CCN(c2ncc3nc(-c4ccccc4)c(=O)n(CCC#N)c3n2)CC1 | ?
CC1CC(NNC(=O)c2ccccc2)=Nc2ccccc2N1C (centres undefined) | -4.2%
CC(Oc1ccc(C(=O)NC2CCCCC2)cc1)C(=O)O (centres undefined) | 0.3%
CCOC(=O)c1ccc(S(=O)(=O)Nc2ccc3cn[nH]c3c2)cc1 | -4.2%
Cc1conc1NC(c1cccs1)c1ccc2cccnc2c1O (centres undefined) | -23.6%
CCS(=O)(=O)N1CCC(C(=O)c2ccc(Cl)cc2)CC1 | -16.8%
Fc1ccccc1N1CCN(c2ncnc3[nH]ncc23)CC1 | -1.6%
COCCNC(=O)c1ccccc1-c1nc(-c2ccccc2OC)no1 | -17.7%
CC1CCN(CCOc2cccc(Br)c2)CC1 | -5.3%
O=C(Cc1ccccc1)NCCSCc1ccco1 | -27.2%
COc1ccc(CCn2c(=O)[nH]c3cc(C(=O)NCCN4CCOCC4)ccc3c2=O)cc1OC | -21.0%
COc1ccc(OCC(=O)NC2CC(C)(C)NC(C)(C)C2)cc1 | -12.0%
CCOC(=O)c1c(NC(=O)C2COc3ccccc3O2)sc2c1CC(C)(C)NC2(C)C (centres undefined) | -22.5%

Molecules from the list above that contain bromine, in the order listed:
SMILES | HPGD block
O=C(NC(Cc1ccccc1)C(=O)O)/C(=C\c1ccco1)NC(=O)c1ccccc1Br (centres undefined) | -7.2%
CC1CCN(CCOc2cccc(Br)c2)CC1 | -5.3%

Part of the list above in order of molar mass, low to high:
SMILES | HPGD block
O=C(Cc1ccccc1)NCCSCc1ccco1 | -27.2%
CN1CCN(c2ncc3nc(-c4ccccc4)c(=O)n(CCC#N)c3n2)CC1 | ?
CCOC(=O)c1c(NC(=O)C2COc3ccccc3O2)sc2c1CC(C)(C)NC2(C)C (centres undefined) | -22.5%

(further entries)
SMILES | HPGD block
C[N+](C)(N)Cc1nc(-c2ccc(Cl)cc2)no1 | -2.8%
C[n+]1ccc(/C=C/c2ccc(Br)cc2)cc1 | ?
C=C(C)CNC(=S)NNC(=O)CCn1c2ccc(Cl)cc2c2cc(Cl)ccc21 | -8.2%
Cc1ccc(-c2nc(CS(=O)(=O)CC(=O)N3CCCCCC3)c(C)o2)cc1 | -15.8%
Cc1ccccc1NC(=O)CN1C(=O)NC2(CCCCC2)C1=O | -7.6%
COc1ccc(N=C2C(=O)N3c4c(cccc42)C(C)=CC3(C)C)cc1 | -19.2%
COC(=O)c1c(C)oc2ccc(NS(=O)(=O)c3cc(OC)ccc3OC)cc12 | -6.9%
CCCc1cc(=O)[nH]c(SCC(=O)C(C)(C)C)n1 | -17.3%
CCn1cc(C(=O)OCC(=O)Nc2c(C)n(C)n(-c3ccccc3)c2=O)c(=O)c2ccc(C)nc21 | -11.1%
Cc1ccc(C(=O)Nc2nnc(-c3ccco3)o2)cc1C | -9.3%
O=S(=O)(NCc1ccco1)c1cccc2cccnc12 | -8.9%
O=C(c1ccco1)N1CCC2(CCN(Cc3nccs3)CC2)CC1 | -3.4%
O=C(COC(=O)c1ccc([N+](=O)[O-])o1)c1ccccc1 | -15.6%
COc1ccc(CCNC(=O)Cn2cnc3c(nnn3Cc3ccc(C)cc3)c2=O)cc1OC | -17.9%
COc1cccc(N2C(=O)c3ccncc3C2=O)c1 | -14.0%
Nc1nc(NC(=O)CCCC(=O)O)nn1-c1ccccc1 | 2.4%
O=C1OCCN1C(=O)[C@H]1[C@H](c2ccc([N+](=O)[O-])cc2)C(c2ccccc2)=NN1c1ccccc1 | -6.5%
CC(=O)c1cccc(NC(=O)c2csc(-n3nc(C)cc3C(F)(F)F)n2)c1 | -12.8%
N#Cc1cc(-c2ccccc2)nnc1Oc1ccccc1Cl | -2.4%
CCOc1ccc(S(=O)(=O)NCc2ccncc2)cc1 | -5.4%
COc1cc(C(=O)O)c([N+](=O)[O-])c(OC)c1OC | -9.9%
COc1ccc(NC(=S)NCc2cccs2)c(OC)c1 | -26.5%
CN1CCN(NC(=O)c2ccccc2F)CC1 | -8.7%
CCOC(=O)c1ccc(N=c2sc(C(=O)OC)cc(=O)n2CCCN2CCOCC2)cc1 | -17.9%
CCc1cn(S(=O)(=O)c2ccccc2OC)nc1N | 0.4%

Quoted from the listing.
`CC(C)Cc1nnc(NC(=O)CC(=O)Nc2ccccc2C(=O)O)s1` | HPGD block: -14.6%
`Cc1ccc(C)c(Nc2ncccc2C(=O)NCc2cccs2)c1` | HPGD block: 25.1µM*
`O=C(NC(Cc1ccccc1)C(=O)O)/C(=C\c1ccco1)NC(=O)c1ccccc1Br` (centres undefined) | HPGD block: -7.2%

The list goes on:
SMILES | HPGD block
Cc1nnc(SCC2=C(C(=O)O)N3C(=O)C(NC(=O)Cn4cnnn4)[C@@H]3SC2)s1 (some centres undefined) | -7.3%
Cc1ccccc1[C@@H](OCCN(C)C)c1ccccc1 | -1.8%
Cc1ccn2c(C(=O)CSc3ccc(Cl)cc3)c(C)nc2c1 | -6.7%
CCOc1ccc(NC(=O)Cn2c(=O)oc3ccccc32)cc1 | 10µM*
Cc1ccc(Cn2c(SC3CCOC3=O)nc3ccccc3c2=O)cc1 (centres undefined) | -9.4%
COc1ccc(CNS(=O)(=O)c2ccc(OC)cc2)cc1 | -4.8%
CCCc1[nH]nc2c1C(c1ccc(OCCN3CCOCC3)c(OC)c1)C(C#N)=C(N)O2 (centres undefined) | -14.1%
c1ccc(Oc2nc(N3CCOCC3)nc(N3CCOCC3)n2)cc1 | 4.1%
CC(C)(C)/C(O)=C/c1nc2ccccc2[nH]c1=O | -9.0%
CCNC(=S)Nc1cc(C)ccn1 | -1.3%
CCCCCCCC[C@@H](O)/C=C/C=C/C=C\[C@@H](O)CCCC(=O)O | -0.2%
NC(=O)NC(=O)COC(=O)c1ccc(Cl)c(S(=O)(=O)N(Cc2ccccc2)c2ccc(Cl)cc2)c1 | -6.1%
COC(=O)C1(C(=O)OC)C/C=C\C/C=C\c2ccccc2C1C[N+](=O)[O-] (centres undefined) | -2.4%
Cn1c(SCC(=O)N2CCN(S(=O)(=O)c3ccc(Cl)cc3)CC2)nc2ccccc21 | -9.3%
O=C(OCC(=O)N(C1CCCCC1)C1CCCCC1)c1ccncc1 | -10.9%
Cc1ccc(C(c2nnnn2Cc2ccccc2)N2CCN(Cc3ccccc3)CC2)cc1 (centres undefined) | 0.4%
COc1ccc(C2=CSC(/N=C/c3ccc(F)cc3)=NN2)cc1 | -5.3%
O=C1[C@@H]2[C@@H]3C[C@@H]([C@H]4ON=C(c5ccc(OCc6ccccc6)cc5)[C@@H]34)[C@@H]2C(=O)N1c1ccc2c(c1)OCO2 | -12.8%
COc1cc(CNC(C)(C)CO)ccc1OCC(=O)NC(C)(C)C | 3.0%
COc1cccc(OCc2cc(/C=N/NC(=O)c3nc(Cl)c(Cl)c(N)c3Cl)ccc2OC)c1 | ?
O=C(O)C1CCCN(S(=O)(=O)c2cccc3cccnc23)C1 (centres undefined) | -7.9%
NC(=O)CN1CCCN(S(=O)(=O)c2ccc(Br)cc2)CC1 | -12.2%
CCSc1nnc(NC(=O)c2cc(C)on2)s1 | -14.8%
CCN(/N=C/c1ccc(Cl)cc1)c1cc(=O)n(C)c(=O)[nH]1 | 28.2µM*
CCCNC(=O)c1cccc(Cn2nc(C)c(Br)c2C)c1 | -9.0%

Additional records.
SMILES | HPGD block
CN(C)CCC(=O)c1ccc2c(c1)OCO2 | -17.0%
Cn1cnc2c1c(=O)n(Cc1c(Cl)cccc1Cl)c(=O)n2C | 5.4%
COc1ccc(-c2[nH]ncc2/C=C(/C#N)C(=O)NC2CCCCCC2)cc1 | ?
O=C(CN1CCN(Cc2ccccc2F)C1=O)NCCN1CCOCC1 | -8.0%
Cc1ccc(NC(=O)CSc2nnc(-c3ccco3)c(-c3ccco3)n2)cc1 | 11.2µM*
Cc1ccccc1CN(c1ccc(C(=O)Nc2ccccc2C(=O)N2CCCC2)cc1)S(C)(=O)=O | -29.5%
CS(=O)(=O)N(CC(=O)NCc1ccc2c(c1)OCO2)c1ccc(Cl)cc1 | -7.7%
C=CCn1c(SCC(=O)c2ccc(Br)cc2)nnc1C(C)NC(=O)Cc1ccc(OC)cc1 (centres undefined) | -7.8%
COc1cc(/C=N\NC(=O)c2ccc(Cn3cc(Br)c([N+](=O)[O-])n3)o2)cc(OC)c1O | -20.9%
CCOC(=O)Cc1csc(NC(=O)COc2ccccc2)n1 | -1.9%
Cc1cc(S(=O)(=O)NC2CCCCC2)c(C)s1 | ?
O=C(CCSc1nc(-c2ccco2)cc(C(F)(F)F)n1)NCc1ccccn1 | -5.9%
O=C(CSc1ccccc1)Nc1ccccc1C(=O)O | -24.7%
Cc1noc(C(=O)NCc2ccccc2)c1Cl | -16.4%
CN1CCN(c2ccc([N+](=O)[O-])cc2C(=O)N2CCOCC2)CC1 | -10.4%
COC(=O)c1cc(NC(=O)C23CCC(C)(C(=O)O2)C3(C)C)cc(C(=O)OC)c1 (centres undefined) | -12.2%
COCCCNC(=O)/C(C#N)=C/c1ccc(OCC(=O)O)c(OC)c1 | ?
C#CCSc1nnc(-c2sc3ccccc3c2Cl)o1 | ?
Cc1ccc(NC(=O)COC(=O)c2cc(-c3cccs3)nn2-c2ccccc2)cc1[N+](=O)[O-] | -27.0%
Cc1cc(OCCN2CCCC2)cc(C(C)C)c1 | -2.2%
O=C(Nc1ccccc1)Nc1cc(S(=O)(=O)N2CCOCC2)ccc1N1CCCC1 | 14.1µM*
CC(C)CNC(=S)Nc1ccc(F)cc1 | -4.1%
COc1cc(C(=O)Nc2cc(Cl)ccc2C)c(-n2cnnn2)cc1OC | -3.7%
